# NPYLR7 agonist = activates Aedes aegypti NPYLR7 receptor. 270,000 tested, 0.15% active. HEK293T NPYLR7/Galpha15, GCaMP6s calcium fluorescence. AID 1259423. activation, % at 10 µM; in the data active = activation above about 40%;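 also: 0% = vehicle and 100% = reference agonist at the receptor; some compounds past the cut are filed as inactive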
# NPYLR7 agonist max-min = second read-out of NPYLR7 agonist, no call of its own (marks repeat the call); activation, %; measured here: Max-Min RFU normalised activation; some inactives read as strong as hits;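 span of the calcium signal over five minutes; 0% = vehicle and 100% = native peptide agonist; compound fluorescence can raise it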
# Active calls of the source: *; & = joins results of further samples. An excerpt (hit frequency here may not be typical).
SMILES,NPYLR7 agonist,NPYLR7 agonist max-min
Cc1ccccc1C(c1ncccc1C)N(C)C(=O)C1CCN(CCOc2ccc(Cl)cc2Cl)CC1 (stereo not given),3.7,2.0
CN(CCC1CCOCC1)c1nncc(-c2cc3ccccc3o2)n1,15.0,8.2
O=C1NC(=S)NC(=O)C1=Cc1ccccc1OCCOc1ccc([N+](=O)[O-])cc1,-6.2,-11.6
Cc1n[nH]c(C)c1NC(=O)Cn1cc(C(F)(F)F)cc(Cl)c1=O,10.7,6.4
COc1ccc(CCOC(=O)[C@@H]2CCCN2C(=S)Nc2cccc(C(F)(F)F)c2)cc1OC,-2.8,-12.3
O=[N+]([O-])c1ccc(NN=Cc2cccnc2)c([N+](=O)[O-])c1,1.7,0.2
Cc1ccc(S(=O)(=O)NNC2=NS(=O)(=O)c3ccccc32)c(C)c1,-14.4,-25.7
c1nc2n(n1)C1=C(CCCC1)C1(CCCCC1)N2,-0.4,-0.1
Cc1cccc(-c2cccc(NC(=O)C3CCCN(C(=O)C4=NN(C)C(=O)CC4)C3)c2)c1 (stereo not given),10.3,5.2
Cc1cc(C)c[n+](C2=C(NS(=O)(=O)c3ccccc3)C(=O)c3ccccc3C2=O)c1,9.0,17.6
CCCCc1nnc(NC(=O)Nc2[nH]c(C)c(C(=O)OCC)c2C)s1,-0.5,2.6
Cc1csc(Sc2nc3c(c(=O)[nH]c(=O)n3C)n2CCCc2ccccc2)n1,2.0,4.7
Cc1ccc(C2(C(=O)N3CCNCC3C(=O)N3CCN(C)CC3)CC2)cc1 (stereo not given),5.3,4.4
COC(=O)c1ccn(CC(=O)Nc2cc(-c3ccccc3)nn2C)n1,1.3,1.8
Cc1ccc(NC(=O)[C@H]2C[C@H](C(=O)O)CN(C3Cc4ccccc4C3)C2)cn1,3.0,0.2
COc1ccccc1NC(=O)C1=C(C)Nc2nc(-c3cccc(O)c3)nn2C1c1cccs1 (stereo not given),1.7,0.3
CC(C)Cc1cc(C(=O)NCc2cccnc2-n2cncn2)n(C)n1,11.9,9.2
COc1ccc(-c2c(C)nn(-c3ccccc3)c2C)c(C(=O)N2CCC(CNC(=O)C(F)(F)F)CC2)c1,-15.3,-20.7
N=C1/C(=C/c2ccc(Br)cc2)C(=O)N=C2SC(Cc3ccccc3)=NN12,-0.9,-0.5
CCOC(=O)N1CCC(NC2CCN(c3ccc(NC(=O)CCc4ccccc4)cc3)CC2)CC1,-6.8,-9.6
COCCn1c(=O)[nH]c(=O)c2c3c(cnc21)C(=O)CC(c1ccccc1)C3 (stereo not given),0.3,25.4
COC(=O)C1=C(C)N(C)C(=O)NC1c1c(Cl)cccc1Cl (stereo not given),-4.7,-7.9
CCn1c(O)c(C2=c3ccccc3=NC2=O)sc1=S,1.6,-0.7
CCc1ccc(C(=O)NC2CCN(c3ccccc3C(=O)NCCN3CCCC3)CC2)cc1,2.0,4.9
O=C(c1cc2ccccc2[nH]c1=O)N1CCCCCCC1,3.9,0.4
CC1=C(C(=O)OCc2ccccc2)C(c2cc3c(cc2Br)OCO3)NC(=O)N1 (stereo not given),1.5,-2.3
COc1ccc(CCN(C(=O)c2cccc(F)c2)C2CC(=O)N(c3ccccc3)C2=O)cc1 (stereo not given),-10.7,-14.6
CCOC(=O)N1CCC(NC(=O)C2CCN(S(=O)(=O)c3c(C)c(C)cc(C)c3C)CC2)CC1,-5.8,-8.3
COc1ccc(CC2(CCC(=O)N(C)Cc3csc(C)n3)CCC(=O)N2)c2ccccc12 (stereo not given),18.5,5.9
COCc1nnc2sc(C3COc4ccccc4O3)nn12 (stereo not given),-0.7,-3.3
Cc1ncc(C(=O)NCC(O)c2c(Cl)cccc2Cl)s1 (stereo not given),-3.4,-4.0
CC(=O)c1cccc(NC(=O)c2cnn3c(C(F)(F)F)cc(-c4cccs4)nc23)c1,-5.0,-2.9
CCCCCn1cc(C2CCN(C(=O)c3ccc4c(c3)OCO4)CC2)c2ccccc21,17.5,26.7
O=C(NCCn1cc(SCC(=O)N2CCc3ccccc32)c2ccccc21)c1cccs1,-0.2,-1.9
CCCCCNC(=O)CC(c1cccc(OC)c1)c1c[nH]c2ccccc12 (stereo not given),-1.6,7.9
O=S1CCC(NCCN2CCc3ccccc32)CC1 (stereo not given),2.8,1.8
CCOc1ccccc1CNC(=O)CCc1cc2c(n1-c1cc(OC)cc(OC)c1)-c1ccccc1CC2,-2.0,-2.8
CCc1ccc2oc(-c3cc(NC(=O)c4cccc(F)c4)ccc3Cl)nc2c1,-5.7,-5.5
CC(NS(=O)(=O)c1ccc2ccccc2c1)C1CC2CCC1C2 (stereo not given),2.7,2.2
Nc1n[nH]c(CCN2C(=O)c3ccccc3C2=O)n1,-14.6,-17.4
Cc1cc(C(=O)N2CCOC(COc3ccc(F)cc3)C2)cc(Cl)n1 (stereo not given),-6.8,-11.1
COc1ccc(C2C(C(=O)OCc3ccccc3)=C(C)NC(C)=C2C(=O)OCc2ccccc2)cc1OC,-4.5,-6.3
O=C1CC(C(=O)NCc2ccccc2Cl)c2ccc(F)cc2N1 (stereo not given),-3.4,-3.5
C=C(C)COc1ccccc1CN(C)C(C)c1ccccn1 (stereo not given),16.8,6.8
CCC(N)c1ccc(C)cn1 (stereo not given),2.8,-1.6
COc1ccccc1C(=O)N(Cc1cccc(OCc2nc(CO)cs2)c1)C1CC1,2.0,16.1
C=CCn1c(SCc2ccc(Cl)cc2)nc2c1c(=O)n(C)c(=O)n2C,19.4,4.4
CCc1nnc(NC(=O)C(C)N2C(=O)C3C4C=CC(C4)C3C2=O)s1 (stereo not given),1.1,-0.7
CCc1cc(CN(C)C(=O)C(=O)c2ccco2)on1,2.2,-0.4
CSc1ccc(CN2CCCC(OCc3cccnc3)C2)cc1 (stereo not given),3.5,2.5
Cc1oc(-c2ccc(Cl)cc2)nc1C(=O)OCC#N,7.6,1.6
Cc1nc(Sc2nc3sc4c(c3c(=O)n2C)CCCC4)c2c3c(sc2n1)CCC3,3.3,9.3
O=C(Cn1cccc1)N1CCC(c2cc(Cc3ccccc3)[nH]n2)CC1,6.0,-3.0
COc1ccc(C2=N/C(=C/C=C/c3ccccc3OC)C(=O)O2)cc1Br,-2.3,-7.7
CCCc1[nH][nH]c(=O)c1C(c1ccccc1)C(C#N)C#N (stereo not given),-9.0,-9.4
COc1ccc(CNc2ccc(S(=O)(=O)C(C)(C)C)nn2)cc1,-4.8,-8.9
CCSc1nc(N(CCO)CCO)c2sc3c(c2n1)COC(C)(C)C3,-14.4,-19.0
Cc1ccc(NC(=O)Cn2nnc(C(=O)NCc3ccco3)c2N)c(C)c1,-6.9,-11.0
O=C(Nc1ccc2c(c1)CN(C1CCSCC1)CC2)C1(c2ccccc2)CC1,2.0,-1.0
Cc1noc(C)c1CSCC(=O)OCC(=O)c1c(N)n(CC(C)C)c(=O)n(C)c1=O,-1.9,-4.8

# Compounds above containing a CF3 group:
SMILES,NPYLR7 agonist,NPYLR7 agonist max-min
Cc1n[nH]c(C)c1NC(=O)Cn1cc(C(F)(F)F)cc(Cl)c1=O,10.7,6.4
COc1ccc(CCOC(=O)[C@@H]2CCCN2C(=S)Nc2cccc(C(F)(F)F)c2)cc1OC,-2.8,-12.3
COc1ccc(-c2c(C)nn(-c3ccccc3)c2C)c(C(=O)N2CCC(CNC(=O)C(F)(F)F)CC2)c1,-15.3,-20.7
CC(=O)c1cccc(NC(=O)c2cnn3c(C(F)(F)F)cc(-c4cccs4)nc23)c1,-5.0,-2.9

# (continued)
SMILES,NPYLR7 agonist,NPYLR7 agonist max-min
CC(=O)Nc1cc(F)c(S(=O)(=O)Nc2ccsc2)c(F)c1,-5.7,39.5
CCOc1ccccc1N1CCN(C(=O)c2ccccc2N2CCC(NC(=O)c3ccc(F)cc3)CC2)CC1,-2.5,1.2
CC(C)C(=O)N1CCN(C(=O)[C@@H](NS(=O)(=O)/C=C/c2ccccc2)C(C)C)CC1,3.4,-1.5
CCN(Cc1cc(C)c(OCc2cccc(C)c2)c(C)c1)C(=O)CC1CCS(=O)(=O)C1 (stereo not given),3.4,2.2
CC(SCCN1C(=O)c2ccccc2S1(=O)=O)C(=O)Nc1ccc(F)c(F)c1 (stereo not given),2.5,1.1
CN(Cc1ccc(Cl)cc1)c1nccc(-c2cc(C(=O)O)ccn2)n1,5.4,4.4
COCCn1c(=S)[nH]c2sc3c(c2c1=O)CCC(C)C3 (stereo not given),-9.3,-15.0
Cc1nc2scc(C)n2c(=O)c1NC(=O)Cc1ccc(Cl)cc1,15.6,2.6
CCOC(=O)c1cc(C(=O)OCC)c(=O)[nH]c1C,-6.4,-6.7
O=C(Nc1ccccc1)Nc1ccccc1OCCn1ccnc1,5.4,2.0
CNS(=O)(=O)c1ccc2[nH]c(=O)c(=O)[nH]c2c1,-3.8,-3.9
CCOC(=O)c1c(NC(=O)c2ccc(Cl)cc2)sc(C(=O)Nc2ccc(OC)cc2)c1C,11.4,13.2
CN(C)CC1(O)CCCN(C(=O)c2ccc(-n3cnnn3)cc2)CC1 (stereo not given),9.2,3.3
O=C(NCc1nn(-c2ccccc2)c2c1CCC2)C1CC1,5.5,2.7
COc1ccc(CC(=O)NCC2CCCN(Cc3cc(OC)cc(OC)c3)C2)cc1 (stereo not given),18.6,4.4
COc1ccc(-c2cc(C(=O)NCc3ccccn3)n3nc(C(C)(C)C)cc3n2)cc1,4.6&18.0,12.4&26.9
Cc1ccc(NC(=O)CN(C)C(=O)/C=C/c2cccs2)cc1,-2.8,-2.3
CC(=O)NCc1ccc(S(=O)(=O)N2CCCCCC2)cc1,2.6,1.0
CSc1nnc2c(S(=O)(=O)N3CCOCC3)cccn12,2.5,0.5
COC1(C)CCC2OC2(C)CCC2C1CC2(C)C (stereo not given),-5.2,-9.0
Cc1c(N=Cc2ccccc2Cl)c(=O)n(-c2ccccc2)n1C,11.5,2.6
CN(Cc1ccccc1)c1nc(CCN)nc2ccccc12,-2.0,-6.8
O=S(=O)(c1ccc(Cl)cc1Cl)N1CCN(c2nccc(-c3ccc(N4CCOCC4)cc3)n2)CC1,-1.3,-0.2
O=C(NCCCc1cccnc1)C1CCCN(C2CCN(C(=O)C3CC3)CC2)C1 (stereo not given),4.2,1.8
CC1CCN(S(=O)(=O)c2ccc(C(=O)Nc3nc(-c4ccc5c(c4)CCC5)cs3)cc2)CC1,-7.5,6.9
COC(=O)c1cc(-c2ccc3c(c2)OCCO3)nc2c1c(C)nn2C1CCS(=O)(=O)C1 (stereo not given),11.7,4.4
CCCNC(CC(=O)Nc1cccnc1)C(=O)O (stereo not given),0.8,-2.9
CC(C)(C)c1ccc(C(=O)Nc2cc(C(=O)Nc3ccc(F)c(F)c3)ccc2N2CC3CC(C2)c2cccc(=O)n2C3)cc1 (stereo not given),-8.5,-3.0
Cc1cnn(CC(C)NCc2c(C)nn(C)c2Cl)c1 (stereo not given),0.9,-1.4
COCCCN(Cc1c(-c2ccccc2)noc1N(C)C1CCCCC1)C(=O)c1ccc(Cl)cc1,-7.6,-0.3

# Molecules shown so far that contain an aryl thioether with sulfur outside any ring:
SMILES,NPYLR7 agonist,NPYLR7 agonist max-min
Cc1csc(Sc2nc3c(c(=O)[nH]c(=O)n3C)n2CCCc2ccccc2)n1,2.0,4.7
O=C(NCCn1cc(SCC(=O)N2CCc3ccccc32)c2ccccc21)c1cccs1,-0.2,-1.9
C=CCn1c(SCc2ccc(Cl)cc2)nc2c1c(=O)n(C)c(=O)n2C,19.4,4.4
CSc1ccc(CN2CCCC(OCc3cccnc3)C2)cc1 (stereo not given),3.5,2.5
Cc1nc(Sc2nc3sc4c(c3c(=O)n2C)CCCC4)c2c3c(sc2n1)CCC3,3.3,9.3
CCSc1nc(N(CCO)CCO)c2sc3c(c2n1)COC(C)(C)C3,-14.4,-19.0
CSc1nnc2c(S(=O)(=O)N3CCOCC3)cccn12,2.5,0.5

# Going on with the list:
SMILES,NPYLR7 agonist,NPYLR7 agonist max-min
COc1cccc(N2CCN(C(=O)Nc3ccccc3)C(C)C2=O)c1 (stereo not given),10.5,9.8
COc1ccccc1CN(Cc1cccc(C(F)(F)F)c1)Cc1nc(C(=O)NC(C)c2ccccc2)co1 (stereo not given),13.4,5.0
CCCc1nc(N2CCCN(C(=O)CCC(=O)OCC)CC2)c2c(C)nn(-c3ccc(F)cc3)c2n1,-8.3,4.8
CCCSc1nnc2n1CCN2c1ccc(F)cc1,1.4,0.4
Cc1ccc2[nH]c(CCC(=O)N3CCOC(C(F)(F)F)C3)nc2c1C (stereo not given),7.8,5.3
CCOC(=O)c1cc(-c2ccc(F)cc2)n(C2CCN(C(=O)c3c(F)cccc3Cl)CC2)n1,2.2,1.4
CC(C)c1cc(NS(=O)(=O)c2cnn(C)c2)no1,0.3&-0.1,-1.1&-1.2
O=C([C@@H]1C[C@@H](NCc2cccc(O)c2)CN1Cc1ccccc1)N1CCN(c2cccc(C(F)(F)F)c2)CC1,11.4,3.3
N#Cc1c(F)cccc1NCCNc1nc2ccccc2o1,10.5,6.9
CCOc1ccc(C(=O)Nc2ccc3oc(-c4ccccc4)nc3c2)cc1[N+](=O)[O-],9.4,8.4
CCn1nc(C)cc1C(=O)NC1CC(C)(C)Cc2c1cnn2-c1ccccc1 (stereo not given),15.2,4.7
CCCc1[nH]n(-c2ccccc2)c(=O)c1/C=C1\NC(=O)N(Cc2c(F)cccc2F)C1=O,-6.9,-3.9
Cc1cc(OC(=O)CN2C(=O)C3C4C=CC(C5CC45)C3C2=O)cc2oc(=O)ccc12 (stereo not given),-6.7,-12.1
CCn1c(C2CCCN(C(=O)c3ccc(C#CC(C)(C)O)o3)C2)nn(C)c1=O (stereo not given),11.4,11.0
CCC(=O)N1CCN(c2ncnc3c2nnn3-c2cccc(F)c2)CC1,-6.1,-16.1
CN(C)C(=O)N1CCCC(C(=O)NCCCC(C)(C)CO)C1 (stereo not given),-8.7,-8.1
Fc1ccc(-c2cc(C(F)(F)F)nc(-n3cccn3)n2)cc1,8.8,1.8
c1cn(CCc2cnc[nH]2)c(-c2ccc(C3CCCCO3)s2)n1 (stereo not given),2.0,-3.4
CCOc1cc2c3c(c1)C1(Nc4ccccc4S1)C(=O)N3C(C)(C)CC2C (stereo not given),-4.3,-9.0
CCc1cnc2c(c1OC)c(=O)n(CC(=O)N(CC)CC)c(=O)n2C,0.5,-1.3
COc1cc(OC)cc(C(=O)N(C)CCc2ccc(OC)c(OC)c2)c1,-9.3,-13.9
